D2 agonist: Beta-Arrestin HTS for Positive Allosteric Modulators of the Human D2 Dopamine Receptor: Agonists | DiscoveRx PathHunter D2 beta-arrestin, luminescence, 90 min; 100% = 57 uM dopamine signal | activation, % (no concentration beside the values) | 360,000 tested, 0.084% active | AID 624465, 2012; in the data active = activation above about 40%; inconclusive = about 15% to 40%; inactive = below about 15%; note: compound concentration not given in the record; the text of the record calls up to 30% inactive
Target sequence (P14416 whole entry, looked up): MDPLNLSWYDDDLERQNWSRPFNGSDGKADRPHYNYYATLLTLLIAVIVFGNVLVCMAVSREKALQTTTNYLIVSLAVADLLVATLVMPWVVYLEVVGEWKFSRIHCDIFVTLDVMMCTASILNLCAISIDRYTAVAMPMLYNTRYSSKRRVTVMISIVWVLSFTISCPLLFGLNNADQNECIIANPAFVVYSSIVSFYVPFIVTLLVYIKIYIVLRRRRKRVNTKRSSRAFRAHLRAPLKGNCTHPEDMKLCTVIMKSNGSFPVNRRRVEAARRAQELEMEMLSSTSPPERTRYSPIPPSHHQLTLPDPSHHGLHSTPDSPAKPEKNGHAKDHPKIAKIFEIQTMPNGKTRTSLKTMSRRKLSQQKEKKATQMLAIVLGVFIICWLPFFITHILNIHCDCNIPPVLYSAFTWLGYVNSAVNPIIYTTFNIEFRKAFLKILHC
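Agonist mode: compounds alone added to overnight-plated D2 PathHunter cells for 90 min at 37 C, with 57 uM final dopamine (EC100) defining full response. Beta-arrestin recruitment detected by chemiluminescent reagent, read after 1 h at ambient temperature.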
TRPML1 inh: qHTS for Inhibitors of the Human Mucolipin Transient Receptor Potential 1 (TRPML1). activity change, negative = inhibition, % (no concentration beside the values). Mucolipin-1 (Homo sapiens), Q9GZU1. 390,000 tested, 0.02% active. AID 624415, 2012. TRPML1-inducible cells, Ca2+ dye fluorescence, FDSS; active compounds read low; inhibition of EC80 agonist-evoked calcium signal; in the data active means activity change below about -50%; inconclusive means about -30% to -50%; inactive means above about -30%;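 note: stimulus is agonist 54-4 at its EC80 concentration; % is set by controls: 0 for no effect and ±100 for the full control effect; compound concentration not given in the record; the text of the record puts the active cut at -80%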
Target sequence (Q9GZU1 whole entry, looked up): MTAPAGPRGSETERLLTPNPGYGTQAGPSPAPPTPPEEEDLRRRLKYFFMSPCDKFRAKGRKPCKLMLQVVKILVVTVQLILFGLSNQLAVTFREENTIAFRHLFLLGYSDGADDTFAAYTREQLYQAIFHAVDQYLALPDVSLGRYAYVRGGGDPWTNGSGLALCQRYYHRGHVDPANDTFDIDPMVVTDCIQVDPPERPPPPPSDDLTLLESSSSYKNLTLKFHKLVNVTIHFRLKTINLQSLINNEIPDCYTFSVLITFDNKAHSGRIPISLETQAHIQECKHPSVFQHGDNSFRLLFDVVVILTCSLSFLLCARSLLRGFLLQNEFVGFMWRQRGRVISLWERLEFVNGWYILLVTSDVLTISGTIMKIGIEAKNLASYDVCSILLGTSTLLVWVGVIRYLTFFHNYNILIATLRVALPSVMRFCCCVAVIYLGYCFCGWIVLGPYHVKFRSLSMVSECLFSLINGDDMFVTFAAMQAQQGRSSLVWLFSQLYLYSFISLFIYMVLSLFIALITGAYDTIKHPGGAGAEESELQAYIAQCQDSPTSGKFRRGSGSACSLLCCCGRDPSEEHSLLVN
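TRPML1-DL cells, Tet-induced overnight (~16 h, 37 °C) at 1,500 cells/well, were loaded with Ca8 no-wash dye plus quencher for 45-90 min at room temperature. Compounds were pinned during FDSS kinetic reading; agonist 54-4 at EC80 (4 uM final) then added.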
Six1-Eya2 blk: qHTS Assay for Inhibitors of the Six1/Eya2 Interaction; Homeobox protein SIX1 (Homo sapiens) + Protein phosphatase EYA2 (Homo sapiens), …; AlphaScreen GST-Six1/His-Eya2 binding, biochemical; active compounds read low; control for the full effect not named in the record; activity change, % (test concentration not listed); 360,000 tested, 0.56% active; AID 651725, 2012; in the data active = activity change below about -65%; inconclusive = about -30% to -65%; inactive = above about -30%; note: % is set by controls: 0 for no effect and ±100 for the full control effect
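Homogeneous AlphaScreen proximity assay pairing GST-Six1 with His-tagged Eya2 (added as 5X mix: 250 nM and 500 nM) in 50 mM Tris pH 8.0, 300 mM NaCl, 1 mM TCEP. Glutathione donor and nickel acceptor beads; 1 h, 37 °C, dark.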
TRPML1 agonist: qHTS for Agonists of the Human Mucolipin Transient Receptor Potential 1 (TRPML1); TRPML1-expressing cells, Ca2+ dye fluorescence, FDSS; host cell line not named in the record; reference of the full effect not given here; activation, % (test concentration not listed); 410,000 tested, 0.12% active; AID 624414, 2012; in the data active = activation above about 50%; inconclusive = about 30% to 50%; inactive = below about 30%; note: 0% is about no effect; the text of the record puts the active cut at 80%
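Kinetic FDSS Ca2+ read in Tet-induced TRPML1-DL cells (ABD Ca8 dye plus quencher, 45-90 min RT loading): baseline, then compound, then 110 s agonist window; EC80 agonist 54-4 at 4uM final added afterwards for a 110 s antagonist window.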
CtBP-E1A inh: qHTS Assay for Inhibitors of the CtBP/E1A Interaction. 340,000 tested, 0.49% active. CtBP / adenovirus E1A interaction (AlphaScreen). activity change, % (test concentration not listed). AID 651724, 2012. AlphaScreen GST-E1A/His-CtBP binding, 1536-well; active compounds read low; control for the full effect not named in the record; in the data active means activity change below about -65%; inconclusive means about -30% to -65%; inactive means above about -30%; note: % is set by controls: 0 for no effect and ±100 for the full control effect
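AlphaScreen with 125 nM GST-E1A and 125 nM His-CtBP (5X stocks) in Tris pH 8.0, 300 mM NaCl, BSA, Tween 20, TCEP. Compounds preincubated 2 h at 37 deg C, then glutathione donor/nickel acceptor beads added for 1 h at 37 deg C in dark.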
PINK1 expr mod: A Quantitative High throughput Screen to Identify Chemical Modulators of PINK1 Expression; PINK1 immunofluorescence, high-content cytometry, 24 h; Potency, µM (series often up to 76.6 µM), inactives show at the highest dose activation (PINK1 increase), most hits filed as activators; 410,000 tested, 0.2% active; active = well fitted activation curve with a large enough effect; inconclusive = small, poorly fitted or top-dose-only effect; inactive = flat fitted curve, though single readings scatter; cell line not stated here;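 note: potency is the fitted concentration of half-maximal effect; % of control where 0% means no effect; nearly all actives have a fitted effect of over 65% in size; a mitochondrial uncoupler was the plate control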
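Stable cell line, 250 cells/well, 12 h attachment; compounds pinned at 5 concentrations, 24 h; CCCP control. Fixed with nuclear dye, primary antibodies 12 h at 10 degrees C, secondary plus cell stain; laser-scanning cytometer read.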
The depositor's hits bear a star; u = inconclusive; x = not tested or not shown; & = joins results of further samples; [ ] = remark or other dose. Not a hit list; any-hit rate near 1%.

SMILES	D2 agonist	TRPML1 inh	Six1-Eya2 blk	TRPML1 agonist	CtBP-E1A inh	PINK1 expr mod
CCC(=O)NC(=S)Nc1ccc(NC(=O)COc2ccc(Cl)c(C)c2)cc1	1.1	0	-4	-0.4	-10	10%
CC(C)(C)n1nnnc1C(c1ccncc1)N1CCCCCC1 (stereo not drawn)	-0.2	0	3	-0.1	7	-1.0%[38.3 µM]
CCCCOc1ccc(OCCNS(=O)(=O)N(C)C)cc1	-0.5	41	2	3.3	7	x
CC(CCc1ccccc1)NC(=O)CN1CCN(Cc2ccc(Cl)cc2)C1=O (stereo not drawn)	2.0	13	-6	-0.8	-1	1.4%
COc1cccc(CNCc2ccc3c(c2)OCO3)c1	0.9	-23	2	-0.8	-1	0.9%
O=C(C1CCN(S(=O)(=O)c2cccc3nsnc23)CC1)N1CCN(c2ccccc2F)CC1	-2.7	3	-4	-0.6	-3	1.0%
CCC(C)NC(=O)CSc1nc2n[nH]c(C)c2c(=N)n1-c1ccc(C)c(Cl)c1 (stereo not drawn)	x	1	x	1.9	x	1.2%
CC(C)c1nc(NCCO)c(C#N)c2c1CCCC2	2.3	-3	-1	3.2	-16	-0.5%
CCOC(=O)c1c(C2CC2)csc1NC(=O)COC(=O)c1cc(OC)c(OC)cc1[N+](=O)[O-]	-2.1	32	-6	0.8	x	3.9%
Cc1ccc(S(=O)(=O)N(C)C)cc1NC(=S)Nc1ccc2cn[nH]c2c1	-4.1	1	-1	-0.7	-6	0.0%
CCOC(=O)c1ccc(NC(=O)c2ccc3c(c2)c(C)c(C)n3Cc2ccc(F)cc2)cc1	x	u	x	1.2	x	3.1%
CCOC(=O)Cn1c(=O)oc2cc(S(=O)(=O)N3CCCC(C)C3)ccc21 (stereo not drawn)	-2.4	-17&-11	4	-0.2&0.2	-9	0.6%&0.4%
CCOC(=O)c1cc(C#N)c(Nc2ccc(C)cc2)nc1C(F)(F)F	-2.4	71	6	0.9	12	6.6%
O=c1[nH]c(C2CCN(S(=O)(=O)c3ccc(C(F)(F)F)cc3)CC2)nc2c1nnn2Cc1ccccc1	-1.2	-8	-5	-0.2	-16	9.9%
COC(=O)c1c(N(S(C)(=O)=O)S(C)(=O)=O)sc2c1CCN(c1ncc(C(F)(F)F)cc1Cl)C2	-2.3	1	-10	1.3	-9	7.3%
O=C(CC1S/C(=N/N=C/c2cccs2)NC1=O)Nc1ccccc1F (stereo not drawn)	6.7	6	12	0.9	x	4.3%
O=C(c1cc2cc(Cl)ccc2[nH]1)N1CCN(c2ccc(F)cc2)CC1	-6.1	-25	-4	-0.1	0	10%
CCC1CCCCN1CCCNC(=O)CN1C(=O)COc2ccc(S(=O)(=O)N3CCOCC3)cc21 (stereo not drawn)	-3.3	-7	5	0.0	3	0.3%
CC(=O)N1c2ccccc2CC1C(=O)N1CCN(c2cccc(C)c2C)CC1 (stereo not drawn)	x	12	x	0.7	x	0.2%
O=C(CCC(=O)N1CCN(S(=O)(=O)c2ccc(Cl)cc2)CC1)NCc1ccccc1	-2.5	-12	2	0.5	3	2.3%
O=C(CSc1ccc(-c2ccc(Cl)cc2)nn1)N1CCCc2ccccc21	-4.0	-9	-12	4.8	-6	5.5%
CSc1nc(C(C)C)ccc1CNC(=O)CC(C)c1ccccc1 (stereo not drawn)	-2.2	47	4	5.0	9	6.3%
CC(=O)Nc1nonc1-c1nnc(SCC(=O)Nc2ccc(C)c(Cl)c2)n1C	x	3	x	0.8	x	1.7%
Cc1cc(C)cc(NC(=O)NN2C(C)CCCC2C)c1 (stereo not drawn)	-4.8	-2	1	1.8	-2	3.8%
O=C(NCc1ccccc1)c1ccc(S(=O)(=O)C(F)F)cc1	-3.7	9	-8	-0.8	6	0.4%

Complete entries, quoted from the list.
Profile of CCOC(=O)c1c(C2CC2)csc1NC(=O)COC(=O)c1cc(OC)c(OC)cc1[N+](=O)[O-] → D2 agonist = -2.1; TRPML1 inh = 32; Six1-Eya2 blk = -6; TRPML1 agonist = 0.8; CtBP-E1A inh = x; PINK1 expr mod = 3.9%
Profile of O=C(CC1S/C(=N/N=C/c2cccs2)NC1=O)Nc1ccccc1F (stereo not drawn) → D2 agonist = 6.7; TRPML1 inh = 6; Six1-Eya2 blk = 12; TRPML1 agonist = 0.9; CtBP-E1A inh = x; PINK1 expr mod = 4.3%

Next structures follow.
SMILES	D2 agonist	TRPML1 inh	Six1-Eya2 blk	TRPML1 agonist	CtBP-E1A inh	PINK1 expr mod
COCCNC(=S)Nc1ccc2nsnc2c1	-0.4	-1	15	6.2	-3	2.2%
Cc1cc(C)c2nc(NC(=O)c3cc(C)on3)sc2c1	-3.4	-8	-11	0.2	6	-1.8%
COc1cccc(-n2c(=O)c3sc4ccccc4c3n(Cc3c(F)cccc3Cl)c2=O)c1	x	17	x	-0.4	x	3.0%
O=C(Cn1cnc2ccc(Cl)cc2c1=O)c1cccs1	-3.7	11	4	-0.3	2	-0.1%
Cc1nc2c(C)cccc2cc1C(=O)N/N=C/c1ccc(C(=O)O)cc1	0.2	-17	-8	0.5	x	0.3%
N#Cc1ccccc1Cn1c(SCC(=O)NCc2ccccc2)nc2ccccc21	x	-4	x	0.5	x	-1.1%
CCOC(=O)C(=Cc1cn(C)c2ccc(S(=O)(=O)N(C)C)cc12)C(=O)OCC	-2.2	-1	4	2.3	0	4.5%
CCOC(=O)C1(CC2CC2)CCN(Cc2cnc(N(C)C)s2)CC1	2.2	-3	0	-0.5	1	0.3%
COc1ccccc1CCNS(=O)(=O)c1cn(C)c(=O)n(C)c1=O	-7.3	x	0	x	-1	1.0%
CC(N=C1NS(=O)(=O)c2ccccc21)C(=O)N1CCc2ccccc2C1 (stereo not drawn)	-3.9	7	-4	0.9	-2	1.1%
Cc1c(CCNC(=O)c2ccc(Br)o2)sc2nc(-c3ccc(Cl)cc3)nn12	x	-12	x	2.4	x	3.2%
Cc1noc(C)c1COC(=O)Cc1ccc(Cl)cc1	-1.0	-1	23	1.2	13	0.7%
O=C(NC1CCCCCC1)c1cc(-c2ccccn2)nc2ccccc12	-4.5	-6	-3	-0.5	-17	1.5%
COc1cc(C(=O)Nc2c(C)cc(C)cc2C)c([N+](=O)[O-])cc1OC	-7.3	-9	8	-0.3	-6	-1.4%
CCCCN(C)C(=O)C1CCC(CNS(=O)(=O)c2ccc3c(c2)CC(C)N3C(=O)C2CC2)CC1 (stereo not drawn)	8.6	-12	-10	1.9	x	8.1%
C=CCN1C(=O)C(CC(=O)Nc2ccc(OCCC)cc2)N(CCCN2CCN(Cc3ccccc3)CC2)C1=S (stereo not drawn)	7.8	-16	-6	0.9	-13	-2.0%
CCOC(=O)/C(=N\Nc1cc(C(F)(F)F)ccc1Cl)N(CC)CC	-0.6	10	-12	0.8	-7	9.9%
N/C(=N\OC(=O)C1CCCCC1)c1ccncc1	4.0	7	12	-0.8	x	2.6%
COc1cccc(Nc2nnc(Cc3cccnc3)c3ccccc23)c1	2.0	3	-1	1.5	x	1.2%
N#C/C(=N\Nc1cccc2ccccc12)c1nnc2n1CCCCC2	-3.0	5	-13	1.2	-14	u
Cc1ccc(S(=O)(=O)N2CCc3cc(C(=O)Nc4ccc(Cl)cc4C)ccc32)cc1	x	2	x	-0.4	x	-0.3%
Cc1cc(C)cc(N(CCC(=O)Nc2nnc(C)s2)S(=O)(=O)c2ccc(Cl)cc2)c1	3.1	3	2	0.7	1	6.1%
O=C(Cc1ccc(Cl)cc1)NCCS(=O)c1ccc(Cl)cc1 (stereo not drawn)	-3.5	5	4	-0.8	9	1.7%
COc1cccc(C(=O)Nc2cc(S(=O)(=O)N3CCCCC3)ccc2OC)c1	1.8	0	-17	1.7	-21	6.3%
Cc1nn2c(=O)cc(CSCC(=O)Nc3ccccc3F)nc2s1	-0.2	-10	1	0.0	x	1.1%

The list goes on:
SMILES	D2 agonist	TRPML1 inh	Six1-Eya2 blk	TRPML1 agonist	CtBP-E1A inh	PINK1 expr mod
CCN(C(=O)CSc1nc2n[nH]c(C)c2c(=N)n1-c1cccc(OC)c1)c1cccc(C)c1	x	43	x	5.6	x	-0.3%
Cn1c(=O)n(C)c2cc(/C=N/NC(=O)c3cccc(Br)c3)ccc21	0.1	6	-15	-0.3	-7	-0.4%
COc1ccc(OC)c(S(=O)(=O)N2CCC(C(=O)NCC3CCCO3)CC2)c1 (stereo not drawn)	1.3	11	11	-0.3	-3	-0.1%
O=c1c2sc3ccccc3c2n(Cc2ccccc2F)c(=O)n1CCc1ccccc1	x	22	x	1.1	x	2.0%
CCc1cc(CNC(=O)C2CCC(=O)N(CCc3cccc(F)c3)C2)on1 (stereo not drawn)	-1.2	-18	3	-0.4	-6	1.0%
N#Cc1c(NC(=S)NC(=O)C2CCCC2)sc2c1CCCCC2	-1.6	-1	-19	0.1	-16	u
COc1ccc(CN(C)S(=O)(=O)c2nnc(NC(=O)c3cccc(OC)c3)s2)cc1	-9.5	-5	-4	0.3	6	1.8%
CCOc1cc(/C=C(\C#N)C(=O)Nc2ccc(OC)cc2)ccc1OCc1cc(=O)n2nc(CC)sc2n1	x	-5	x	-0.6	x	4.0%
COc1ccc(NC(=O)c2cc(C3CC3)nc3c2c(C)nn3-c2ccc(C)cc2)cc1OC	x	-13	x	-0.2	x	0.8%
CC(C)(C)C1CCC2(CC1)C(C#N)=C(SCC(=O)Nc1ccccc1)NC(=O)C2C#N (stereo not drawn)	1.3	-14	-5	1.2	-2	22µM*
Cc1nc2ccccc2c2oc(C(=O)Nc3ccc(C(C)C)cc3)cc12	0.7	6	-21	3.2	0	1.1%
CN(CCC#N)C(=O)CSc1nnc(-c2ccco2)n1N	-1.4	13	-18	-0.5	23	1.3%
CC(=O)Nc1ccc(NC(=O)COC(=O)c2ccccc2SCC(=O)N2CCCC2)cc1	-0.6	25	1	0.9	0	2.7%
COc1ccccc1N(CC(=O)NC1CCCCC1)C(=O)CCC(=O)Nc1ccccn1	-2.1	3	-2	-0.1	17	-0.4%
CCOc1ccccc1CNS(=O)(=O)c1cc(-c2cc(C)no2)ccc1OC	0.2	36	-6	-0.7	-7	3.9%
CC[C@@H](C)[C@H](CN[C@H](CNC)[C@@H](C)O)NCCc1ccc(OC)cc1	-3.5	5	-6	-0.4	0	0.8%
COc1ccccc1C1=NC(c2ccc(F)cc2)N=C1C (stereo not drawn)	1.7	4	22	0.1	0	1.0%

Screening results (PubChem)
